# Insulin prom inh = TRM-6 insulin promoter activity inhibition | TRM-6 cells (human fetal islet line), insulin promoter-eGFP reporter, imaging; reporter expression induced with tamoxifen | inhibition, % at 2 µM | hit rate 0.9% among 130,000 | AID 1273;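 active = inhibition above the mean plus 3 SD, with well images judged a real hit on visual review, cut at about 60% in these data, passing the limit was not always enough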
# HSV replic up = HSV replication enhancement. HSV replication augmentation in cells, fold increase. hit rate 0.005% among 220,000. maximum fold increase;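 active = peak rise of 1.5-fold or more in the series; tested in PC3 cells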;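 note: first round at 10 µM; read as green reporter fluorescence; hits show the peak of a series up to 25 µM; 1 = signal of infected wells without compound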
# PKD1 kinase inh = blocks activity of human protein kinase D1 | PKD1 kinase fluorescence polarization assay | hit rate 0.056% among 200,000 | inhibition, %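 (about 10 µM by stock and volumes)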 | AID 797 | Q15139;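 active = inhibition of 50% or more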;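 note: controls were vehicle for no effect and a reference inhibitor for full effect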
# Target sequence (Q15139 whole entry, looked up): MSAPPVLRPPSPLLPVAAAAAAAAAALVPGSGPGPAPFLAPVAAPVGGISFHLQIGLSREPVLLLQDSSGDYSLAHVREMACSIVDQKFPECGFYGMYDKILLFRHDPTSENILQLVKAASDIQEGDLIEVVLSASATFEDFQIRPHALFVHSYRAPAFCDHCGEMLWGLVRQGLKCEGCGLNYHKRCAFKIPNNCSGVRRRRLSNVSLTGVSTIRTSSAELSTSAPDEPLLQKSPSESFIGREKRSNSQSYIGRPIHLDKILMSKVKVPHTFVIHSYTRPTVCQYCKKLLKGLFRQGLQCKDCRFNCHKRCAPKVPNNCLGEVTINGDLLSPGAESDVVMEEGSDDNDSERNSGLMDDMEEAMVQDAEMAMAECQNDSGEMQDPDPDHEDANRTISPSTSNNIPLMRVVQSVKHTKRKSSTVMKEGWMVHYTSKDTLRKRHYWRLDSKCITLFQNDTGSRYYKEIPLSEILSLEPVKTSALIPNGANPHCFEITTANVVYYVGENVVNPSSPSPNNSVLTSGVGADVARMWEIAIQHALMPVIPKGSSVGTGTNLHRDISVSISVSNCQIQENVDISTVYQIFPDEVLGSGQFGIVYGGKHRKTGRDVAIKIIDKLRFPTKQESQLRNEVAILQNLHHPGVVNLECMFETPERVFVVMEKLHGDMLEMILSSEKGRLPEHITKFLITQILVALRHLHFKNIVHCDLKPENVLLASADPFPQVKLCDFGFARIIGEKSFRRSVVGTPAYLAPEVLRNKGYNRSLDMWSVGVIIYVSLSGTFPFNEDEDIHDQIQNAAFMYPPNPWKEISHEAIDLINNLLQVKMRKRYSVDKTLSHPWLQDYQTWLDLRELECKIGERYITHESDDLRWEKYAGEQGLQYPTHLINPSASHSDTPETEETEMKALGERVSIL
# GALR2 agonist = agonists of human galanin receptor 2 (GALR2); O43603; GALR2-expressing cells, agonist activation read-out; hit rate 0.48% among 140,000; activation, %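 (tested at 5 µM)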; AID 803;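 active = above mean plus 3 SD of all compounds, about 5% in these data, not always enough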;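 note: 0% = vehicle buffer wells and 100% = reference agonist at full effect; tested in CHO reporter cells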
# RGS16-Gao = regulators of human RGS16-Galphao interaction; O15492+P09471; bead-based flow cytometry RGS16-Galphao binding, fluorescence; actives lie on both sides; binding response (% of control), % at 10 µM; hit rate 0.38% among 220,000; AID 1441;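 active = below 25% or above 175%, edge rows of some plates excepted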;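 note: Galphao activated by GDP with aluminum fluoride before binding; 100% = wells without compound and 0% = beads without RGS; some results beyond the cut were filed as inactive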
# Insulin prom inh cell count = recorded beside Insulin prom inh, whose call it bears; normalized cell count, %; measured here: cell count, toxicity; reference of the scale not given here;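 cells exposed to compound for 48 h; stained nuclei by imaging scaled within each plate; lower means fewer cells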
# HSV replic up primary fold = also measured in HSV replic up; calls as there; fold increase; compound at 10 µM; measured here: primary screen fold increase 10 uM; tested in PC3 cells;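 GFP signal in the first replicate; 1 = infected wells without compound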
# Numbers without * were called inactive; i = inactive; . = no result given; & = joins results of further samples.
SMILES,Insulin prom inh,Insulin prom inh cell count,HSV replic up,HSV replic up primary fold,PKD1 kinase inh,GALR2 agonist,RGS16-Gao
CCN(c1ccccc1)S(=O)(=O)c1ccc(Cl)c(C(=O)OCC(=O)NC(=O)C(C)C)c1,.,.,i,0.96,-11,.,97
COCc1[nH]nc2c1C(c1ccsc1)C(C#N)=C(N)O2 (centres undefined),.,.,i,0.74,4,-1.8,99
Oc1ccc(Br)cc1CNn1cnnc1,.,.,i,0.95,0,0.0,105
O=C(COc1ccc2ccccc2c1)Nc1cccc2c1C(=O)NC2=O,25,120,i,0.97,4,.,109
Cc1cc(-c2ccc(Cl)cc2)c(C#N)c(N)n1,.,.,i,0.94,2,-0.9,115
CCN1CCN(c2ncnc3c2c(-c2ccccc2)cn3-c2ccc(F)cc2)CC1,0,98,i,0.96,-8,.,104
Nc1ccc(NC(=O)c2cccs2)cc1,.,.,i,1.1,-3,.,96
C=CCn1c(SCC(=O)c2c(N)n(C)c(=O)n(C)c2=O)nc2sc(CC)cc2c1=O,-10,128,.,.,-3,-2.5,100
Cc1c(C)n(CC(O)CN2CCCCCC2)c2ccccc12 (centres undefined),.,.,i,0.78,-1,0.2,116
O=C(NN1C(=O)C2C3c4ccccc4C(c4ccccc43)C2C1=O)C1CC1 (centres undefined),.,.,i,1,-10,.,96
N/C(=N\OC(=O)CSc1ccccc1)c1cccc([N+](=O)[O-])c1,-7,98,i,1,-6,-0.2,34
CC1(c2ccccc2)CC(C)(C)n2c(O)c(C3=NC(=S)NC3=O)c3cccc1c32 (centres undefined),.,.,i,0.96,.,.,93
Cc1cccn2c(CN(C)C3CCCc4ccccc43)c(C(=O)N3CCOCC3)nc12 (centres undefined),.,.,i,1.1,3,.,100
Cc1nn(C)c(C)c1S(=O)(=O)N(CC(=O)NCCCOC(C)C)c1ccc(C(C)C)cc1,-7,139,i,1.1,-10,-0.2,102
Cc1ccc(C)c(N2CCN(CCCNC(=O)Cn3cccc3C(=O)c3ccccc3C)CC2)c1,-93,49,i,0.58,5,.,112
COc1ccccc1-c1ccc(=O)n(CC(=O)NC(C)(C)C)n1,.,.,i,0.98,17,-1.1,99
CC1(C)CC2CC(C)(CN2C(=O)C23CCC(C)(C(=O)C2)C3(C)C)C1 (centres undefined),12,112,i,1.1,5,-0.9,102
COC(=O)c1cc(NC(=O)CC2NC3CCCCC3NC2=O)cc(C(=O)OC)c1 (centres undefined),-59,70,i,1.1,-14,-1.2,79
Cc1ccc2nc(SCc3ccc([N+](=O)[O-])cc3)nc(C)c2c1,35,126,i,0.98,3,-2.8,95
Cc1ccc(-n2c(O)c(C=NCc3ccccn3)c3ccccc3c2=O)cc1,0,95,i,0.87,2,1.8,111
CCOC(=O)C(NS(=O)(=O)c1ccccc1)(C(F)(F)F)P(=O)(OCC(C)C)OCC(C)C (centres undefined),-37,147,i,0.96,1,0.5,95
Cc1nnc(C)n1/N=C/c1cccs1,.,.,i,1,-8,-1.0,105
CCOC(=O)C1=C(CNCc2ccc(C)cc2)NC(=O)NC1c1cc(C)ccc1C (centres undefined),13,43,i,0.96,-2,1.2,64
CC(C)(C)c1ccc(C(=O)c2c[nH]c(C(=O)NCc3cccs3)c2)cc1,4,99,i,0.97,-2,-0.9,97
CC1(C)CC(NC(=O)CC(c2ccccc2)c2ccccc2)CC(C)(C)N1,36,119,i,1,-10,-4.8,98
SMILES,Insulin prom inh,Insulin prom inh cell count,HSV replic up,HSV replic up primary fold,PKD1 kinase inh,GALR2 agonist,RGS16-Gao
CCOc1ccc(C(=O)CCN2CCCCCC2)cc1,.,.,i,0.86,-12,-0.1,103
C=CCN(c1ccc(C(=O)Nc2ccc(C)cc2)cc1)S(C)(=O)=O,.,.,i,0.84,-4,.,102
O=C(NNC(=O)c1cc2c(s1)CCCC2)c1ccccc1,11,72,i,0.94,-5,-1.7,81
COCCn1c(C)cc(C(=O)CN2CCCCC2)c1C,-7,100,i,0.98,-5,.,108
CCC(C)NC(=O)CSc1nc2c(sc(=S)n2Cc2ccco2)c(=O)n1-c1ccccc1 (centres undefined),-33,79,i,0.88,-9,-0.9,98
CC(C)=CCN1CCN(C/C(Cl)=C/c2ccccc2)CC1CCO (centres undefined),.,.,i,0.92,.,.,104
NS(=O)(=O)c1ccc(CNC(=S)Nc2ccc(Cl)c(Cl)c2)cc1,.,.,i,0.97,-4,.,103
CCOC(=O)c1c(N)sc2c(OC)c(Br)ccc12,29,90,i,0.65,1,-3.0,96
O=C(Nc1ccc(Nc2ccncc2)cc1)c1ccc([N+](=O)[O-])cc1,.,.,i,0.98,.,.,95
O=C1NC(=O)/C(=C\c2ccccc2OCc2cccc([N+](=O)[O-])c2)N1,-15,78,i,0.8,3,0.7,93
CC(C)n1cc(-c2ccc(Cl)cc2)cc(C#N)c1=O,-19,144,i,0.96,-8,-1.9,115
COc1cccc(/C=N/Nc2ncc(C(F)(F)F)cc2Cl)c1O,19,42,i,0.59,-4,0.0,94
O=C(O)c1cccc2c1C(=O)N(CC1CCCO1)C2 (centres undefined),.,.,i,0.97,2,.,73
O=C(c1cc([N+](=O)[O-])[nH]n1)N1CCSCC1,.,.,i,1.1,.,.,100
CC(=O)NC1=NN(C(C)=O)C(c2ccco2)S1 (centres undefined),.,.,i,0.98,.,.,98
CCOC(=O)/C(C#N)=C\c1ccc(OC)c(OC)c1,36,102,i,0.83,1,.,95
CCOC(=O)c1ccc(N2C(=O)c3n[nH]c(-c4ccco4)c3C2c2ccc([N+](=O)[O-])cc2)cc1 (centres undefined),26,128,i,0.74,-5,0.5,161
CC1(C(=O)N/N=C/c2ccccc2)CC1(Br)Br (centres undefined),22,83,i,0.99,-2,.,106
CCCC(=O)c1c[nH]c(C(=O)NCCc2ccccn2)c1,-39,107,i,0.97,1,-1.3,102
C/C(Cn1nnc([N+](=O)[O-])n1)=N\NC(=O)c1ccccc1Cl,.,.,i,0.91,5,-2.0,100
O=C(COc1ccc(Cl)cc1)Nc1nnc(-c2ccc3c(c2)CCCC3)o1,.,.,i,0.84,3,-0.9,99
CCc1nc(SCC(=O)Nc2nnc(CC(C)C)s2)n[nH]1,.,.,i,0.9,-4,.,113
C[C@@]12CC(=O)NC1N(C(=O)c1cccc(C(F)(F)F)c1)C(c1ccccc1O)C2 (some centres undefined),11,67,i,1.1,2,-0.7,117
N#Cc1c(NC(=O)CSc2nnnn2C2CCCCC2)sc2c1CCCC2,-3,75,i,1,-2,-1.6,95
O=C1NCCN1Cc1ccc(Cl)cc1,.,.,i,0.9,-2,.,103

# An excerpt from above in order of count of non-hydrogen atoms, lowest first.
SMILES,Insulin prom inh,Insulin prom inh cell count,HSV replic up,HSV replic up primary fold,PKD1 kinase inh,GALR2 agonist,RGS16-Gao
O=C(c1cc([N+](=O)[O-])[nH]n1)N1CCSCC1,.,.,i,1.1,.,.,100
CC(=O)NC1=NN(C(C)=O)C(c2ccco2)S1 (centres undefined),.,.,i,0.98,.,.,98
CCOC(=O)c1c(N)sc2c(OC)c(Br)ccc12,29,90,i,0.65,1,-3.0,96
O=C(O)c1cccc2c1C(=O)N(CC1CCCO1)C2 (centres undefined),.,.,i,0.97,2,.,73
C/C(Cn1nnc([N+](=O)[O-])n1)=N\NC(=O)c1ccccc1Cl,.,.,i,0.91,5,-2.0,100
NS(=O)(=O)c1ccc(CNC(=S)Nc2ccc(Cl)c(Cl)c2)cc1,.,.,i,0.97,-4,.,103
CCOC(=O)c1ccc(N2C(=O)c3n[nH]c(-c4ccco4)c3C2c2ccc([N+](=O)[O-])cc2)cc1 (centres undefined),26,128,i,0.74,-5,0.5,161

# The listing continues.
SMILES,Insulin prom inh,Insulin prom inh cell count,HSV replic up,HSV replic up primary fold,PKD1 kinase inh,GALR2 agonist,RGS16-Gao
O=C(Nc1cccc(-c2cn3ccsc3n2)c1)c1ccccc1,.,.,i,0.78,-6,-2.2,102
CC(C)[C@@H](C(=O)OCC(=O)Nc1ccc2c(c1)OCO2)N1C(=O)c2ccccc2C1=O,-22,116,i,0.86,-2,-0.8,98
Cc1ccc(CNC(=O)c2cc3c(-c4ccc(Cl)cc4)nn(C)c3s2)o1,.,.,i,0.87,2,-1.5,103
O=C1CCCc2nc(NCc3ccco3)ncc21,33,88,i,0.84,3,-0.9,108
CCOc1ncccc1C(=O)Nc1ccc(S(=O)(=O)N2CCCC2)cc1,-29,86,i,0.94,7,.,103
C=CCC(C)(NCc1ccccc1)c1ccco1 (centres undefined),-42,70,i,1,-13,-2.4,133
Cc1cc(C)c(S(C)(=O)=O)c(Oc2ccc(F)cc2)n1,.,.,.,.,-1,-2.1,98
O=C(NNC1=NC2(CCCC2)Cc2ccccc21)c1cccnc1,-65,48,i,1,-2,.,99
Cc1ccc(S(=O)(=O)Nc2c(C)[nH]c(=O)[nH]c2=O)cc1C,29,133,i,0.96,12,5.9*,105
CC(C)N(Cc1nc(-c2ccc(Cl)cc2)no1)C(=O)c1cccs1,.,.,i,1.2,-7,-1.8,101
CCOC(=O)c1c(N)ssc1=S,.,.,i,0.84,-9,-1.9,100&59
O=C1C2CC=CCC2C(=O)N1Cc1nnc(-c2ccccc2Br)o1 (centres undefined),.,.,i,1.2,.,.,97
O=C1C2C3C=CC([C@@H]2C(=O)N1c1nccs1)C31CC1 (some centres undefined),41,83,i,0.9,2,0.0,106
Cc1cc(C)cc(C(=O)N2CCN(c3ccccn3)CC2)c1,.,.,i,1,-9,.,106
COc1cc(NC(=O)C/C(C)=N/NC(=O)C(=O)NCCO)c(OC)cc1Cl,.,.,i,0.9,.,.,96
Cc1ccc(Nc2c(-c3ccc(N4CCOCC4)cc3)nc3cnccn23)cc1,.,.,i,1,.,.,98
C=CCn1c(COc2ccc(F)cc2)nnc1SCC(=O)NC(=O)NCc1ccco1,25,110,i,0.96,10,-2.5,89
Cc1ccc(S(=O)(=O)NCc2ccco2)cc1C,-48,49,i,0.79,-7,-0.2,110

# GALR2 agonist: what is marked active above.
structure	HSV replic up	HSV replic up primary fold	PKD1 kinase inh	GALR2 agonist	RGS16-Gao
Cc1ccc(S(=O)(=O)Nc2c(C)[nH]c(=O)[nH]c2=O)cc1C	i	0.96	12	5.9*	105

# Screening results: PubChem, several laboratories
